High-throughput results deposited in PubChem by several laboratories.
CSC inhib – cancer stem cell viability inhibitors, primary screen, luminescence. cancer stem cell-like cells viability. inhibition, % at 7.5 µM. 1.1% of 300,000 active. AID 2717, 2010;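 active = mean at 75% or more and at least half the replicates too; tested in HMLE shEcad cells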;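 also: 0% = median of negative and 100% = median of positive control wells; the first replicate is given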
Rce1 inh – yeast Rce1p protease inhibitors, primary screen, biochemical, fluorescence, cell-free homogeneous. yeast membranes, quenched prenylated peptide cleavage fluorescence. calls only. 0.27% of 290,000 active;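 active = fall in fluorescence gain of 50% or more versus controls, with final raw signal at or below 3038400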;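 also: plate controls were neutral control wells for no effect and wells lacking membranes for full effect; tested at 10 µM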
Env fusion inh – inhibitors of HIV-1 Env-driven cell-cell fusion, primary screen, HeLa-JRFL effector, CEM21 target cells, luciferase. inhibition, % at 12.3 µM. 1.1% of 360,000 active. AID 651610, 2012;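 active = mean replicate inhibition score of at least 50 and every replicate individually at or above 50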;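 also: 0% = plate neutral controls and 100% = maraviroc near 300 nM; one replicate is shown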
PABP FP inh – PABP poly(A) RNA binding inhibitors, primary screen, biochemical, fluorescence polarization, uHTS | Polyadenylate-binding protein 1 (Homo sapiens), P11940 | inhibition, % at 35 µM | 1% of 290,000 active | AID 2014, 2009;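 active = 50% or more with normal probe brightness, or confirmed in later tests; about a fifth of its hits are not listed in these tables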;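 also: calls also rest on retests at 20 µM and on dose response follow-up; controls were probe without protein and protein plus probe with vehicle; some compounds called inactive have numbers as strong as hits; many hits fall short of the cut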
Target sequence (P11940 whole entry, looked up): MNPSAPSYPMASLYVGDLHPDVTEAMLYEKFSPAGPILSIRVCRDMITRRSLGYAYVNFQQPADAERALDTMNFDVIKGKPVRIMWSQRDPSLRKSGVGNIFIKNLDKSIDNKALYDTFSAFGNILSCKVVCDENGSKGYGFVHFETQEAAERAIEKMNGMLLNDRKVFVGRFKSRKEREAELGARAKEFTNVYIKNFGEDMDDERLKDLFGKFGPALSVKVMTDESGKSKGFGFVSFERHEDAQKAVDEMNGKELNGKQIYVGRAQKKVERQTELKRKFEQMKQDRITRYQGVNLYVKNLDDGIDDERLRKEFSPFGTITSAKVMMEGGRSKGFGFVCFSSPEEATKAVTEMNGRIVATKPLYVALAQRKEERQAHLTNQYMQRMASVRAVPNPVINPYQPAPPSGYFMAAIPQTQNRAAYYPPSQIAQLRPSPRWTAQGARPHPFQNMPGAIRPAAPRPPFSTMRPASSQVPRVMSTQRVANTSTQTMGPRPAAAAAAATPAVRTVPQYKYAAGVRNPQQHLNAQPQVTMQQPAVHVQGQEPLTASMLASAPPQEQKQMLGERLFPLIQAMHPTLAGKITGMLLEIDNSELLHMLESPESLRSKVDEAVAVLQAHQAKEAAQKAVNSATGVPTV
MT1-MMP act inh – blockers of MT1-MMP proenzyme processing, primary screen, HT1080 RFP-PRO-GFP cells, GFP/RFP fluorescence; GFP/RFP ratio fluorescence, overnight; percent of plate control window, DMSO zero; 0.061% of 360,000 active; Matrix metalloproteinase-14 (Homo sapiens), P50281; GFP/RFP ratio change, % at 20 µM; AID 651647, 2012;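 active = GFP/RFP ratio change of at least 30% with cell ATP level not reduced by more than half and red fluorescence within 50% of control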; also: strong numbers were not always called active
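Assay system: RFP-PRO-GFP reporter HT1080 cells; read-out basis: GFP/RFP fluorescence ratio; benchmarks: DMSO wells and RFP-L50D-GFP cells; doses: 20 µM single dose, 1% DMSO; schedule: overnight cell settling, then overnight compound exposure, 37 °C, 5% CO2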
eIF4H inh – human eIF4H binding inhibitors, primary screen, translation initiation inhibitor project, biochemical, uHTS, fluorescence polarization. 0.94% of 290,000 active. Eukaryotic translation initiation factor 4H (Homo sapiens), Q15056. inhibition, % at 35 µM. eIF4H fluorescence polarization binding assay;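 active = 50% or more with normal probe brightness, or confirmed in later tests; about a fifth of its hits are not listed in these tables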;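 also: calls also rest on retests at 20 µM and on dose response follow-up; 0% = protein and probe with vehicle and 100% = probe without protein; strong numbers were not always called active; many hits fall short of the cut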
Yeast UUG start – modulators of yeast start codon fidelity, primary screen, whole organism, S. cerevisiae, single point, plate reader. 0.13% of 350,000 active. S. cerevisiae UUG-firefly luciferase reporter, luminescence/redox ratio. AID 602363, 2012. activity score, % at 18.7 µM;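 active = replicate mean at a twofold rise or more, about +100% in these data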;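 also: firefly luciferase made from a UUG start codon reports start codon fidelity; reporter light over untreated wells divided by growth signal over untreated wells; some hits fall short of that in this replicate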
eIF4H inh retest – also measured in eIF4H inh; calls as there; inhibition, %; compound at 20 µM; confirmation average;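 mean of two retest wells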
PABP FP inh retest – recorded beside PABP FP inh, whose call it bears; inhibition, %; compound at 20 µM; confirmation repeats;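 mean of two retest wells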
MT1-MMP act inh RFP – further read-out of MT1-MMP act inh, marked with its call; RFP signal change, %; measured here: RFP expression control read;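 0 = vehicle wells; hits needed this value within 50% of zero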
* = called active by the depositor; i = inactive; / = not tested or not shown; + = active, no number.

SMILES	CSC inhib	Rce1 inh	Env fusion inh	PABP FP inh	MT1-MMP act inh	MT1-MMP act inh RFP	eIF4H inh	Yeast UUG start	others
CN(c1ccccc1)S(=O)(=O)c1ccc(C(=O)NCc2cccs2)cc1	-5	i	3	11	3	2	-5	4
Cc1ccc(S(=O)(=O)N2CCOCC2)cc1NC(=O)c1cc2c(s1)CCC2	6	i	-11	-8	1	-3	-5	-8
Nc1ccc(S(=O)(=O)Nc2nccs2)cc1	/	/	-16	/	-4	5	/	-17
CCOc1ccc(CCNS(=O)(=O)c2ccc3c(c2)NC(=O)CO3)cc1OCC	-8	i	7	-7	-1	3	6	-1
CCn1c(N2CCN(S(=O)(=O)c3ccccc3C(F)(F)F)CC2)nc2ccccc21	-5	i	-97	20	1	-7	-8	0
C[C@@H](NC(=O)c1[nH]cnc1C(=O)Nc1ccccc1)c1ccccc1	18	/	-27	/	8	-7	/	-12
Cc1ccc(S(=O)(=O)N2CCN(C(=O)Cn3c(=O)cnc4ccccc43)CC2)cc1	-12	/	2	/	-1	1	/	5
Cc1cc(C)n(-c2cc(O)c(-n3nc(C)cc3C)cc2O)n1	2	i	8	-10	1	1	0	/
CCCC(=O)N1CCC1(C)C(=O)Nc1ccc2c(c1)OCCO2 (stereo not drawn)	/	/	5	/	-3	0	/	-7
Cn1cc(S(=O)(=O)NCc2cccs2)c(=O)n(C)c1=O	-21	i	-21	0	-5	2	10	-7
Cc1ccc(NC(=O)CSc2ncnc3ccccc23)cc1S(=O)(=O)N1CCOCC1	4	i	8	-4	-17	-16	-6	-2
CC(OC(=O)CCCN=C1NS(=O)(=O)c2ccccc21)C(=O)N(C)c1ccccc1 (stereo not drawn)	-6	i	7	/	-4	-3	/	17
O=S(=O)(Nc1ncccc1O)c1ccc(Cl)cc1	-1	i	21	25	-2	-4	5	5
COC(=O)c1ccc(COC(=O)[C@@H]2CC(O)CN2S(=O)(=O)c2ccccc2[N+](=O)[O-])cc1 (stereo partly drawn)	-4	i	-23	/	1	-5	/	0
CCOC(=O)c1c(C=O)c(C)n(Cc2ccc(C)cc2)c1C	18	i	-3	48	4	-1	-2	/
COc1ccc(S(=O)(=O)Nc2c(NC3CCCCC3)c3ccccc3oc2=O)cc1	-7	i	11	-3	-3	-3	3	-10
COc1ccc(NC(=O)CSc2nncs2)cc1S(=O)(=O)N1CCCCC1	-17	/	8	/	3	-3	/	-4
O=S(=O)(c1ccc(S(=O)(=O)N2CCOCC2)cc1)N1CCCC1	-10	i	20	-6	0	3	-6	/
CC(=O)Nc1ccc(/C=C/C(=O)c2ccccc2)cc1	3	i	/	-3	/	/	10	/
O=C1NC[C@H](Cc2ccccc2)N(CC2CCN(CCC34CC5CC(CC(C5)C3)C4)CC2)C1=O	/	/	18	/	0	0	/	-8
CS(=O)(=O)Nc1ccccc1C(=O)NC1CC2CCC1C2 (stereo not drawn)	/	+	-68	11	-2	1	-2	-21
COc1ccc(N2CCN(S(=O)(=O)CC34CCC(CC3=O)C4(C)C)CC2)cc1 (stereo not drawn)	-14	/	2	64	4	-4	-5	2	eIF4H inh retest=5;PABP FP inh retest=0
COCCCNCC(O)COc1cccc2[nH]c(C)cc12 (stereo not drawn)	13	i	10	7	-1	1	1	/
Cc1ccc(S(=O)(=O)N2CCC(C(=O)NCCCN3CCOCC3)CC2)cc1C	19	i	-320	/	-2	1	/	-14
Cc1cccc(N2CCN(Cc3ccc([N+](=O)[O-])o3)CC2)c1C	-5	i	15	15	2	1	-8	-6

Grouped by structure, the compounds so far with a halogen
SMILES	CSC inhib	Rce1 inh	Env fusion inh	PABP FP inh	MT1-MMP act inh	MT1-MMP act inh RFP	eIF4H inh	Yeast UUG start	others
CCn1c(N2CCN(S(=O)(=O)c3ccccc3C(F)(F)F)CC2)nc2ccccc21	-5	i	-97	20	1	-7	-8	0
O=S(=O)(Nc1ncccc1O)c1ccc(Cl)cc1	-1	i	21	25	-2	-4	5	5

Among those listed so far, 2 have an aryl thioether with sulfur outside any ring:
SMILES	CSC inhib	Rce1 inh	Env fusion inh	PABP FP inh	MT1-MMP act inh	MT1-MMP act inh RFP	eIF4H inh	Yeast UUG start	others
Cc1ccc(NC(=O)CSc2ncnc3ccccc23)cc1S(=O)(=O)N1CCOCC1	4	i	8	-4	-17	-16	-6	-2
COc1ccc(NC(=O)CSc2nncs2)cc1S(=O)(=O)N1CCCCC1	-17	/	8	/	3	-3	/	-4

Structures from the list above that have an NH in an aromatic ring, in the order listed:
SMILES	CSC inhib	Rce1 inh	Env fusion inh	PABP FP inh	MT1-MMP act inh	MT1-MMP act inh RFP	eIF4H inh	Yeast UUG start	others
C[C@@H](NC(=O)c1[nH]cnc1C(=O)Nc1ccccc1)c1ccccc1	18	/	-27	/	8	-7	/	-12
COCCCNCC(O)COc1cccc2[nH]c(C)cc12 (stereo not drawn)	13	i	10	7	-1	1	1	/

By substructure, those above with an aryl methoxy group (three)
SMILES	CSC inhib	Rce1 inh	Env fusion inh	PABP FP inh	MT1-MMP act inh	MT1-MMP act inh RFP	eIF4H inh	Yeast UUG start	others
COc1ccc(S(=O)(=O)Nc2c(NC3CCCCC3)c3ccccc3oc2=O)cc1	-7	i	11	-3	-3	-3	3	-10
COc1ccc(NC(=O)CSc2nncs2)cc1S(=O)(=O)N1CCCCC1	-17	/	8	/	3	-3	/	-4
COc1ccc(N2CCN(S(=O)(=O)CC34CCC(CC3=O)C4(C)C)CC2)cc1 (stereo not drawn)	-14	/	2	64	4	-4	-5	2	eIF4H inh retest=5;PABP FP inh retest=0

(next part)
SMILES	CSC inhib	Rce1 inh	Env fusion inh	PABP FP inh	MT1-MMP act inh	MT1-MMP act inh RFP	eIF4H inh	Yeast UUG start	others
CCN(CC)C(=O)Cn1cc(S(=O)(=O)CC(=O)Nc2ccc(F)cc2F)c2ccccc21	-14	i	0	2	-2	-1	19	-1
CCCCS(=O)(=O)/C=C\C=C/S(=O)(=O)CCCC	111*	i	/	2	-30	-29	-6	/
Cc1cc(C(=O)COc2ccccc2C(N)=O)c(C)n1C	-6	i	-10	10	3	-3	1	/
CC1CCCC(C)N1C(=O)c1ccc2c(c1)S(=O)(=O)c1ccccc1C2=O (stereo not drawn)	-10	i	15	-6	4	0	5	-15
CSC1=NCCN1S(=O)(=O)c1ccc(Cl)cc1	5	/	7	3	1	3	5	/
Cc1cc(C(=O)Cn2cc([N+](=O)[O-])ccc2=O)c(C)n1CC1CCCO1 (stereo not drawn)	/	/	-8	/	4	1	/	-7
Nc1ccccc1-c1nnc(-c2ccccc2N)n1N	2	i	-1	15	3	4	0	/
Cc1nc(-c2ccc([N+](=O)[O-])cc2)sc1C(=O)O	3	i	-23	12	4	0	1	-16
CCOc1ccc(S(=O)(=O)N2CCC(C(=O)N3CCOCC3)CC2)cc1Cl	1	i	10	-9	3	0	-2	4
CC(C)CC1c2[nH]c3ccccc3c2CCN1C(=O)CCC(=O)N(C)C (stereo not drawn)	-9	i	-15	-3	-5	-1	10	2
COC1OC2COC(c3ccccc3)OC2C(O)C1N (stereo not drawn)	/	/	13	/	-1	2	/	-12

A portion of the library, so the mix of outcomes need not match the whole.
